# Assay outcomes (PubChem BioAssay)
# Vaccinia pol inh – inhibitors of vaccinia virus processive DNA synthesis (E9 polymerase); in vitro processive DNA synthesis, absorbance read-out; active compounds read low; some inactives read as strong as hits; normalized absorbance, % (test concentration not listed); 0.94% of 46,000 active;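 active means replicate mean up to 90% and picked by the depositor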;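 further: 100% = median of the test wells of a plate; 100 nL library stock went into each well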
# Starred values were filed as active, the others as inactive; & = joins results of further samples. A portion of the library; the hit share may differ from the screen's.
SMILES,Vaccinia pol inh
CC(C)(C)c1ccc(C(=O)N2CCCC2)cc1,100
CN(C)/C=C1/Nc2ccccc2C1=O,100
COc1ccc(C=Nc2ccc(/C=C\C(=O)O)cc2)cc1,87
O=C(Cc1ccccc1)Nc1nnc(C2CCCCC2)s1,98
Cc1cccc(Cn2nc(Cc3cccnc3)c3ccccc3c2=O)c1,101
CC(=O)Oc1ccccc1OCc1nn(C)c2ccccc12,100
CCN(CC)CCOc1ccc2nc(N(C)C)sc2c1,101
COc1ccc(NC(=O)c2ccccc2Nc2ccccc2)cc1,104
O=C(COc1ccc(Cl)cc1)NCCn1ccc2ccccc21,98
c1ccc(-c2nc3ccccc3o2)cc1,100
S=c1cc(-c2ccccc2)ss1,84
Cc1ccccc1-n1c(C)cc(/C=C2\NC(=O)NC2=O)c1C,97
C=CCNC(=O)C1C(=O)Nc2nc3ccccc3nc21 (stereo not drawn),94
O=C(O)CC1(Cc2nc(-c3ccc(Cl)cc3)no2)CCCC1,98
NC1=NCCN1CC(=O)O,98
CCC(=O)Nc1ccc(-c2nc3ccccc3[nH]2)cc1,100
COc1ccc(CN(Cc2cccn2C)C(=O)c2cc3cc(OC)ccc3[nH]2)cc1,106
Cn1nc(-c2cc(C(F)(F)F)cc(C(F)(F)F)c2)c2ccccc2c1=O,100
CC1=C(C#N)C(=O)N(CC(C)O)C(=O)/C1=C/c1ccc(-c2ccc(Br)cc2)o1 (stereo not drawn),100
C/C(=N\N)c1c(-c2ccccc2)c2cc(Br)ccc2[nH]c1=O,99
O=C(O)C1CSC(C2CC=CCC2)N1 (stereo not drawn),99
CC(=O)Oc1ccc(/C=C2/C(=N)N3C(=NC2=O)SN=C3SC(C)C)cc1,100
CC1(C)CC2CC(C)(CN2C(=O)COC(=O)c2cccs2)C1 (stereo not drawn),94
Cc1ccc(C(=O)OC2CCCN(C)C2)s1 (stereo not drawn),75

# Reprinted from the part before: ten compounds; new compounds follow.
SMILES,Vaccinia pol inh
NC1=NCCN1CC(=O)O,98
CCC(=O)Nc1ccc(-c2nc3ccccc3[nH]2)cc1,100
COc1ccc(CN(Cc2cccn2C)C(=O)c2cc3cc(OC)ccc3[nH]2)cc1,106
Cn1nc(-c2cc(C(F)(F)F)cc(C(F)(F)F)c2)c2ccccc2c1=O,100
CC1=C(C#N)C(=O)N(CC(C)O)C(=O)/C1=C/c1ccc(-c2ccc(Br)cc2)o1 (stereo not drawn),100
C/C(=N\N)c1c(-c2ccccc2)c2cc(Br)ccc2[nH]c1=O,99
O=C(O)C1CSC(C2CC=CCC2)N1 (stereo not drawn),99
CC(=O)Oc1ccc(/C=C2/C(=N)N3C(=NC2=O)SN=C3SC(C)C)cc1,100
CC1(C)CC2CC(C)(CN2C(=O)COC(=O)c2cccs2)C1 (stereo not drawn),94
Cc1ccc(C(=O)OC2CCCN(C)C2)s1 (stereo not drawn),75
CCCc1nc2ccccc2n1C(C)C,101
CCOC(=O)/C=C(\O)C(F)(F)F (tested in a mixture with another compound),111
CCN(CC)c1ccc(N=C2C(=C(C#N)C#N)c3ccccc3C2=C(C#N)C#N)cc1,100
CC(=O)N(c1nccs1)C1CCCCC1,101
CS(=O)(=O)Nc1ccc([N+](=O)[O-])cc1OC1CCCCC1,101
C=C(C)CSc1nc2c(c(=O)n1-c1ccccc1)CC1=C(CC(C)(CC)OC1)N2 (stereo not drawn),100
N#CC(C#N)=C(Nc1ccccn1)C(F)(F)F,102
CCCN(CCC)C(=O)c1ccc2c(Cl)c3c(nc2c1)CCCC3,104
Nc1c(Cl)cc(Cl)cc1C(=O)OCC(=O)NC1CCCCC1,104
CC(=O)N(C(C)=O)n1c(C)nc2c(sc3nnc(-c4ccccc4)c(-c4ccccc4)c32)c1=O,98
c1ccc(-c2nnc(SCC3CCOCO3)n2-c2ccccc2)cc1 (stereo not drawn),99
O=C(Cc1c[nH]c2ccccc12)NCc1ccccc1,100
O=C1/C(=C/C2CC=CCC2)SC(=S)N1CC1CCCO1 (stereo not drawn),100
CCc1ccc(C(=O)Nc2ccc(Br)cn2)cc1,100
CC(C)(C)C(=O)Nc1nnc(-c2ccc(Br)cc2)s1,104
COc1ccc(CC(=O)Nc2ccc(-c3n[nH]c(=S)s3)cc2)cc1,100
O=C(Nc1ccc(N2CCOCC2)c(Cl)c1)c1ccc(Br)o1,99
O=C(/C=C/c1cccs1)OCc1ccc2c(c1)OCO2,98
O=C(On1c(-c2ccccc2)nc2ccccc2c1=O)c1cccc(C(F)(F)F)c1,92
Cc1ccc(C#N)c(SC(C(=O)O)c2ccccc2)n1 (stereo not drawn),102
COc1ccc(N2Cc3cccc(C(=O)NCCc4cccc(C)c4)c3C2=O)cc1,106
O=C(O)c1cccc(S(=O)(=O)Nc2ccccc2)c1,94
CCOC(=O)c1cnc(SC)nc1N,93
COC(=O)C(NC(=O)c1cc(-c2ccccc2)nc2ccccc12)C(C)C (stereo not drawn),108

# Compounds listed so far that have an aryl thioether with sulfur outside any ring (4):
SMILES,Vaccinia pol inh
C=C(C)CSc1nc2c(c(=O)n1-c1ccccc1)CC1=C(CC(C)(CC)OC1)N2 (stereo not drawn),100
c1ccc(-c2nnc(SCC3CCOCO3)n2-c2ccccc2)cc1 (stereo not drawn),99
Cc1ccc(C#N)c(SC(C(=O)O)c2ccccc2)n1 (stereo not drawn),102
CCOC(=O)c1cnc(SC)nc1N,93

# New compounds follow
SMILES,Vaccinia pol inh
O=C(COC(=O)CSc1n[nH]c(-c2ccccc2)n1)NC1CCCCC1,94
CCCN(CCC)c1ncnc2nc[nH]c12,98
CC(Oc1ccccc1)C(=O)NCCn1ccc2ccccc21 (stereo not drawn),101
COCc1cc(OC(=O)N(C)C)nc(COc2ccc(Cl)cc2)n1,100
CCOC(=O)N1CCN(Cc2cc(Cl)c3cccnc3c2O)CC1,101
c1ccc(CN2CCN(Cc3ccccc3)CC2)cc1,95
c1ccc(Cn2c3ccccc3n3ncnc23)cc1,87
O=C(O)COc1c(Cl)cc(C=C2C(=O)NC(=S)NC2=O)cc1Cl,100
O=C1CS(=O)(=O)C(c2ccc(Oc3ccccc3)cc2)N1c1ccccc1 (stereo not drawn),101
Cc1ccc(CNC(=O)CN(Cc2ccccc2)S(=O)(=O)c2ccccc2)cc1,99
Cc1ccc(C)c(NC(=O)Cn2cccc2)c1,102
Oc1c(Cl)cc(Cl)cc1Sc1cc(Cl)cc(Cl)c1O,60*
N#C/C(=C/Nc1ccc(S(N)(=O)=O)cc1)c1nc(-c2ccc(Cl)c(Cl)c2)cs1,88
COC(=O)Nc1nc2ccc(-c3n[nH]c(=O)c4ccccc34)cc2[nH]1,107
CCOC(=O)C1CCN(C(=O)CSc2ccc3ccccc3c2)CC1,91
CCN(CC)CC(=O)Nc1c(C)cccc1C,97&95
COc1ccc(CNC(=O)COC(=O)CC2CCCC2)cc1,101
Cc1ccc(S(=O)(=O)N(CC(=O)N2CCCCC2)C2CCCCC2)cc1,90
O=C(Nc1c2c(nn1-c1ccc(Cl)cc1)CSC2)c1ccco1,100
Cc1ccc(C2C3CCCC=C3C(C#N)C(N)C2(C#N)C#N)s1 (stereo not drawn),100
COc1ccc(N(C)S(=O)(=O)c2ccc3c(c2)oc(=O)n3C)cc1,91
O=C(CSc1ccc2ccccc2c1)NCCCN1CCCC1=O,96
COc1ccc(S(=O)(=O)N2CC=C(c3ccccc3)CC2)c(OC)c1,122
COc1ccc(CNc2nc(-c3ccc(OC)cc3)no2)cc1,108
COc1cccc(C(=O)N2NC(=O)C=CC2=C(C#N)C#N)c1,101
CCC(C(=O)N1CCCC1)n1nc(C)c2sc3ccccc3c2c1=O (stereo not drawn),99
CCc1ccc(C(C2C(=O)CC(C)(C)CC2=O)C2C(=O)CC(C)(C)CC2=O)s1,101
O=C(O)c1oc2ccccc2c1COc1ccccc1,72*
CCOC(=O)CSc1ncnc2nc[nH]c12,101
CN(C(=O)Nc1ccc(Cl)cc1)C1CC2C=CC1C2 (stereo not drawn),107
Cc1ccc(C)c(C(=O)N(CCC#N)Cc2cccnc2)c1,100
CC(C)Cn1c(=O)n(C)c(=O)c2[nH]cnc21,100&100
CC(CCc1ccco1)NC(=O)c1cccc2c1C(=O)N(C1CCCCC1)C2 (stereo not drawn),96
COCc1cc(C)nc(N2CCOCC2)c1C#N,101
O=C(c1ccc(S(=O)(=O)NCC2CCCO2)cc1)N1CCc2ccccc21 (stereo not drawn),114
CC(C)NC(=O)c1cn(C2CCCCC2)c(=O)c2c1c1ccccc1n2C,93
Cc1ccc(S(=O)(=O)C2CS(=O)(=O)c3ccccc32)cc1 (stereo not drawn),99
NC(=O)c1ncc(C(F)(F)F)cc1SCc1ccc(Cl)cc1,86
CN(C)CC1CCCCC1OC(=O)c1cc2ccccc2o1 (stereo not drawn),98
COC(=O)CSc1nc(-c2ccccc2)nc2c1CCCC2,105
CCOC(=O)c1cc(C)n(CC2CCC(C(=O)Nc3ccccc3)CC2)c1C (stereo not drawn),97
CC1(C)Cc2c(c(N3CCOCC3)nc3sc4c(Cl)nnnc4c23)CS1,104
Cc1ccc(OC(=O)c2ccccc2)c(C(C)(C)C)c1,100
Cc1cc(C)c2c(=O)n(C(=O)c3cccs3)sc2n1,111
COC(=O)c1c(C)[nH]c(C)c1/C=C(\C#N)S(=O)(=O)c1ccc(Cl)cc1,101
CC1(C)Cc2c(c(N3CCOCC3)nc3sc(C#N)c(N)c23)CO1,104
O=C(c1ccc(Cl)cc1)N(CCS(=O)(=O)c1ccc(Cl)cc1)Cc1cccs1,104
COc1ccccc1CCNC(=O)CSc1ccc(-c2ccco2)nn1,97
CCOC(=O)CN1C(=O)S/C(=C/c2cc(C)n(-c3cc(C)ccn3)c2C)C1=O,94
Cc1c(-c2cccc(Cl)c2)nc2ccccc2c1C(=O)N1CC(C)OC(C)C1 (stereo not drawn),96
NC(=O)CSCC(=O)Nc1ccccc1,102
CC(C)CC(C(N)=O)C1=NC(C)(C)Cc2ccccc21 (stereo not drawn),100
O=C(Nc1ccccn1)c1cccc(N2C(=O)CCC2=O)c1,100
CCC(C)Sc1nc2c(cnn2-c2ccccc2)c(=O)[nH]1 (stereo not drawn),100
N#Cc1ccc(OCc2ccc(C(F)(F)F)cc2)c(Cl)c1,99
C=C1C(C(=O)Nc2ccc(OC)cc2)C1C(=O)Nc1ccc(OC)cc1 (stereo not drawn),104
CCOC(=O)COc1ccc2ccc(=O)oc2c1,101
CCn1c(=O)cc(N2CCN(c3ccccc3)CC2)[nH]c1=O,84
Cc1cccc(C(N)CC(=O)O)c1 (stereo not drawn),79
N#CCC(=O)NS(=O)(=O)c1ccccc1,96
# The list goes on:
SMILES,Vaccinia pol inh
CCOc1ccc(/C=C2\SC(N3CCCC3)=NC2=O)cc1,100
O=C1NC(c2ccccc2)=NC1=C(Cl)Cl,69
CC(=O)N(Cc1ccc(S(N)(=O)=O)cc1)C1CC(=O)N(c2ccccc2)C1=O (stereo not drawn),100
Cc1ccc(C(=O)NC2CCCC2)s1,106
NS(=O)(=O)c1ccc(CNC(=O)c2ccc(C(=O)N(C3CCCCC3)C3CCCCC3)cc2)cc1,100
Cc1nn(C(=O)Cc2ccc(Cl)cc2)c(C)c1Br,101
CC/C(O)=C1\C(=O)CCCC1=NCCc1c(C)[nH]c2ccccc12,100
CC(C)OP(=O)(c1ccc(N(C)C)cc1)C(Nc1ccccc1)c1ccccc1 (stereo not drawn),101
O=C(Nc1ccc(F)cc1F)N1CCCN(c2ccc(C(F)(F)F)cn2)CC1,110
Cc1ccc(S(=O)(=O)CCN2CCC(n3cccc3)CC2)cc1,105
CCCCC1(COC(=O)Nc2cccc(Cl)c2)C(=O)N(c2ccccc2)N(c2ccccc2)C1=O,103
Cc1cc(C)n(/N=C/c2ccccc2O)c(=O)c1,100
O=C(O)c1ccccc1C(=O)OCCN1CCOCC1,100
O=c1c(-c2nnc3c(Cl)nc4ccccc4n23)coc2ccccc12,100
O=C(O)CCC(=O)c1cccs1,106
Clc1ccc(-n2ncc3c(NCc4ccco4)ncnc32)cc1,88
CC1CC2C3CCC4=CC(=O)C=CC4(C)[C@@]3(F)C(O)CC2(C)[C@@]1(O)C(=O)CO (stereo partly drawn),98
O=C(Nc1cc(Cl)sc1Cl)N1CCOCC1,102
O=S(=O)(NCC1COc2ccccc2O1)c1ccc(N2CCOCC2)nc1 (stereo not drawn),99
O=C(c1ccc(F)cc1F)N1CCN(C(=O)c2ccc(F)cc2F)CC1,91
Nc1c(C(=O)NCC2CCCO2)sc2ccc(S(=O)(=O)N3CCCCC3)cc12 (stereo not drawn),98
Cc1nc2nc(SCC(=O)N3CCC4(CC3)OCCO4)nn2c(C)c1Cc1ccccc1Cl,95
CCOC(=O)Nc1ccc(Cl)c(Cl)c1,97
Cc1ccc(C(=O)C2OC(=O)C(C)(C)C(=O)C2(C)C)cc1 (stereo not drawn),100
COc1ccc(SCC(=O)O)cc1,112
CCOC(=O)Cc1csc(NC(=O)c2sc3ccccc3c2Cl)n1,101
O=C(NCCOc1ccccc1-c1ccccc1)c1cccc2ccccc12,101
CCOC(=O)c1c(NC(=O)c2ccccc2C(=O)O)sc2c1CCCC2,99
COc1cc(C2=NC(O)C(=O)Nc3ccc(Cl)cc32)ccc1O (stereo not drawn),92
CCn1cc(C(=O)O)c(=O)c2cc(F)c(N3CCN(C(=S)NC)CC3)cc21,100
O=C1NC(=O)C(CCc2ccncc2)(CCc2ccncc2)C(=O)N1Cc1ccccc1,100
c1coc(-c2nc3ccccc3n2CCC2CCCCC2)c1,87
COc1ccc(CC2(C)OC(c3ccncc3)=NN2C(C)=O)cc1 (stereo not drawn),100
Cc1cc(NC(=O)CSc2nc3c(sc4ccccc43)c(=O)n2CCc2ccccc2)n[nH]1,100
